# Screens: PubChem BioAssay, National Center for Advancing Translational Sciences (NCATS)
# HPGD inh = qHTS Assay for Inhibitors of HPGD (15-Hydroxyprostaglandin Dehydrogenase); Potency, µM, for inactives: at the highest dose activity change, negative = inhibition, actives largely listed as inhibitors; AID 894, 2007; purified HPGD, NADH fluorescence kinetic, PGE2 substrate; actives 4.3% (n = 150,000); active = well fitted inhibition curve with a large enough effect (not every such curve was filed as active); inconclusive = small, poorly fitted or top-dose-only effect, or another doubt; inactive = no such curve, though single readings can be large or run the other way;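 also: top concentration of the series not given in the record; plate controls included wells without enzyme; inactives centre near -10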
# Target sequence (P15428 whole entry, looked up): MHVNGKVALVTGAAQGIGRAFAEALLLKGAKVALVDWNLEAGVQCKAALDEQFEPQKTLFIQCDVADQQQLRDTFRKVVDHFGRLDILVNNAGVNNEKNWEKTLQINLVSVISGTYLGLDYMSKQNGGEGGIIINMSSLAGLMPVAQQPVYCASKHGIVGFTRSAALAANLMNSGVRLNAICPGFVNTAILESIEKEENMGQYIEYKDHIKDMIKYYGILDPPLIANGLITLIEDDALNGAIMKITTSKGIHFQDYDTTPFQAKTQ
#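 NADH formation kinetics: reaction with 30 uM PGE2 and 1 mM NAD+ (final), 20 nM enzyme, Tris-HCl pH 8 with Tween 20, after 15 min compound preincubation at room temperature. Fluorescence change, last versus first of five reads.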
# Numbers without * were called inactive; ? = inconclusive; [ ] = remark or other dose. % is scaled to controls: 0 for no effect and ±100 for the full control effect; potency is read from the fitted curve at half-maximal effect. The list is partial; the hit share may differ from the screen's.
HPGD inh	SMILES
254%[activator]	C#CCn1c(=NC(=O)c2ccc(Br)s2)sc2cccc(OC)c21
-18%	Cc1nn(-c2ccc(C(F)(F)F)cn2)c(C)c1Oc1ccccc1O
-6%	CC(CO)Nc1nc(SCc2ccccc2)nc2sc3c(c12)CCC3 (stereo not drawn)
-8%	CC(=O)Nc1ccccc1-c1nc2ccccc2nc1OCC(=O)c1ccc(Br)cc1
7.9µM*	CCOC(=O)c1sc(=S)n(C)c1NC(=O)c1ccc(F)cc1
-1%	CCCCOc1ccc(OCCNS(=O)(=O)N(C)C)cc1
-11%	Cc1cccc(C)c1N(CC(=O)Nc1cc(Cl)ccc1Oc1ccccc1)S(C)(=O)=O
-4%	CC(=O)Nc1ccc(OCC=C(Cl)Cl)cc1
-1%	CCOC(=O)c1ccc2c(c1)n(CCO)c(C)[n+]2CC
-12%	CCN(CC)CCNC(=O)Cc1nn(CC)c(=O)c2ccccc12
-5%	CC(=O)O[C@@H]1CC[C@]2(C)C(=C[C@@H]([C@@H]3C=C4C[C@@H](OC(C)=O)CC[C@]4(C)C4=C3[C@H]3C[C@@H]5O[C@@]6(CC[C@H](C)CO6)[C@@H](C)[C@@H]5[C@@]3(C)CC4)C3=C2CC[C@@]2(C)[C@H]4[C@@H](C)[C@]5(CC[C@H](C)CO5)O[C@@H]4C[C@H]32)C1
20µM*	COC(=O)/C=C1\OC(c2ccccc2)=CC1=O
-8%	O=C(Cn1cncn1)N/N=C/c1c2ccccc2cc2ccccc12
-9%	CC1(C)C([N+](=O)[O-])C(c2ccc(O)cc2)NC(c2ccc(O)cc2)C1[N+](=O)[O-] (stereo not drawn)
5%	COc1ccccc1N1CCN(C(=O)CN(c2ccc(C)c(C)c2)S(C)(=O)=O)CC1
-6%	CCC(CC)C(=O)OCC(=O)Nc1ccc(S(=O)(=O)N2CCOCC2)cc1OC
-3%	Cc1ccc(NCN2C(=O)C3C4C=CC(C4)C3C2=O)cc1 (stereo not drawn)
-13%	CC(=O)c1nn(-c2ccc(Br)cc2)cc1C(=O)c1ccccc1
4%	Cc1ccc(-n2ncc3c(=O)[nH]c(SCC(=O)N4CCOCC4)nc32)cc1
-14%	COc1ccc(/C=C/C(=O)Nc2cc(C)nn2-c2nc3ccccc3[nH]2)cc1
-2%	NC(=O)NC(=O)COC(=O)CN1C(=O)C2CCCCC2C1=O (stereo not drawn)
-2%	CN1CC(=O)Nc2ccc(F)cc2C1=O
-14%	O=C(CCSc1ccc(F)cc1)Nc1ccc(-n2cnnn2)cc1
-27%	Cc1ccc(-c2c3c(=O)n(C)c(=O)n(C)c3cn2-c2ccccc2O)cc1
-1%	COC(=O)CCC(C)C1CCC2C3C(O)C[C@@H]4CC(O)CC[C@@]4(C)C3CC(O)[C@]12C (stereo partly drawn)
-3%	Cc1ccc(NC2c3ncccc3C(=O)N2C2CCCCC2)cc1 (stereo not drawn)
-20%	COC(=O)c1c[nH]n2c(=O)cc(CCl)nc12
-24%	CC1(C)CC(=O)C2=C(C1)OC(/N=C/N1CCOCC1)=C(C#N)C2c1ccccc1 (stereo not drawn)
-25%	Cc1cc2oc(=O)cc(-c3ccccc3)c2c(C)c1-c1ccc(CO)cc1
-4%	COc1ccc2c(C)cc(C)nc2n1
-21%	Cc1ccc2cc(C(c3nnnn3C(C)(C)C)N3CCCC3)c(=O)[nH]c2c1C (stereo not drawn)
-3%	CC(=O)Nc1cc(C(=O)c2ccccc2)ccc1N1CCOCC1
-17%	O=C(c1ccco1)N1CCC[C@@]2(CCN(c3cccc(-c4ccccc4)c3)C2)C1
-9%	COC(=O)c1cccc(OC(N)=O)c1
-10%	COc1ccc(C)cc1S(=O)(=O)N(CC(=O)Nc1cc([N+](=O)[O-])ccc1C)c1ccc(C)c(C)c1
-16%	O=C1NC[C@H](c2ccccc2)N1
-4%	CCOC(=O)Cc1csc(NC(NC(=O)OCC)(C(F)(F)F)C(F)(F)F)n1
?	COC(Cc1n[nH]c(=S)n1-c1ccc(Cl)cc1)OC
-21%	C/C(=N\Nc1cccc(Cl)c1)c1ccc(-n2ccnc2)cc1
2%	CCCn1c(CNC(=O)c2ccccc2)nc2ccccc21

# An excerpt taken from the entries so far:
HPGD inh	SMILES
?	COC(Cc1n[nH]c(=S)n1-c1ccc(Cl)cc1)OC
-21%	C/C(=N\Nc1cccc(Cl)c1)c1ccc(-n2ccnc2)cc1
2%	CCCn1c(CNC(=O)c2ccccc2)nc2ccccc21

# Other structures:
HPGD inh	SMILES
-17%	O=C(C1CCC1)N1CCc2cc(S(=O)(=O)NCc3ccco3)ccc21
-27%	CC1CCCCN1C(=O)CSc1nc2cc3c(cc2c(=O)n1Cc1ccc2c(c1)OCO2)OCO3 (stereo not drawn)
-12%	CCCCCC#CCC#CCC#CCC#CCCCC(=O)O
-12%	CC1CCN(S(=O)(=O)c2ccc(NC(=O)Cc3ccccc3)cc2)CC1
-9%	COc1ccc(C2/C=C\CN(C(=O)OCC3c4ccccc4-c4ccccc43)CC(=O)N2Cc2cccc(F)c2)cc1 (stereo not drawn)
-5%	COc1ccc(CCNC(=O)Cn2cnc3c2c(=O)n(C)c(=O)n3C)cc1OC
-8%	O=C(CCc1ccccc1)Nc1cccc(NC(=O)CCc2ccccc2)c1
?	CCOc1ccc(C(=O)CCN2CCCCC2)cc1
-15%	CCC(CCC(C)C1CCC2C3CC=C4CC(O)CC[C@@]4(C)C3CC[C@@]12C)C(C)C (stereo partly drawn)
3%	Cc1nccn1CCCN1C(=O)CNC1=S

# The list goes on; it opens with the 5 that closed the last part.
HPGD inh	SMILES
-5%	COc1ccc(CCNC(=O)Cn2cnc3c2c(=O)n(C)c(=O)n3C)cc1OC
-8%	O=C(CCc1ccccc1)Nc1cccc(NC(=O)CCc2ccccc2)c1
?	CCOc1ccc(C(=O)CCN2CCCCC2)cc1
-15%	CCC(CCC(C)C1CCC2C3CC=C4CC(O)CC[C@@]4(C)C3CC[C@@]12C)C(C)C (stereo partly drawn)
3%	Cc1nccn1CCCN1C(=O)CNC1=S
-15%	O=C(COc1ncnc2scc(-c3ccccc3)c12)NC1CCCc2ccccc21 (stereo not drawn)
-19%	N#C/C(=C\c1ccco1)c1nc2ccccc2s1
-11%	CN1C(=O)c2ccc(C(=O)NC3CCCCC3)cc2C1=O
-24%	CNc1nc(-c2c[nH]c3ccccc23)cs1
-7%	COc1ccccc1NS(=O)(=O)c1ccc2oc(SCc3ccc(C#N)cc3)nc2c1
-2%	Cn1c(=O)c2c(=O)cc(NNC(=O)C(C)(C)C)[nH]c2n(C)c1=O
-8%	C=CCn1c(N)cc(=O)nc1SC(C)C(=O)Nc1cccc2ccccc12 (stereo not drawn)
?	COc1cccc(-c2nc(-c3ccc(NC(=O)c4cccs4)cc3)no2)c1
1%	Cc1ccc(OCCOCCNC(C)(C)C)c([N+](=O)[O-])c1
?	CCn1c(=O)c2cc(C(=O)NCCN3CCOCC3)sc2c2ccccc21
-9%	CC1CCCCN1S(=O)(=O)c1ccc(NC(=O)c2cccs2)cc1 (stereo not drawn)
-7%	CCOC(=O)N1CCN(S(=O)(=O)c2cccc3cccnc23)CC1
-9%	CCOC(=O)C1CCN(C(=O)CCc2c(C)nc3ncnn3c2C)CC1
-9%	CC(C)Sc1nc2c(c(=O)n(C)c(=O)n2C)n1C
?	Cc1ccc2c(c1)c1ncn(CCC3=CCCCC3)c(=O)c1n2C
-15%	COc1ccc(/C=C(/NC(=O)/C=C/c2ccccc2)C(=O)N2CCOCC2)cc1
-7%	CN1CCn2c1nc(N1CCOCC1)nc2=O
-16%	Cc1ccc(-n2c(C)cc(/C=N/Nc3ccc([N+](=O)[O-])cn3)c2C)c(C)c1
-14%	CCN1CCCC(OC(=O)Nc2ccccc2)C1 (stereo not drawn)
-10%	O=C(O)C1CC(O)CN1S(=O)(=O)c1cccs1 (stereo not drawn)
?	CC1(C)Cc2nc3sc4c(=O)n(CC(=O)NCc5ccco5)cnc4c3cc2CO1
-2%	COc1ccccc1NC(=O)CN1CCN(CC(=O)Nc2ccc3c(c2)OCCO3)CC1
1%	CC(C)/C(O)=C1/C(=O)OC(c2ccoc2)[C@@]2(C)C(O)C(O)[C@@]34OC5(C)OC67CC(C)(C(O)[C@@]6(O)C(O)[C@@]3(O5)C12)C(CC(=O)O)[C@@]74C (stereo partly drawn)
?	CCN(c1cccc(C)c1)S(=O)(=O)c1ccc2[nH]c(=O)c(=O)[nH]c2c1
-9%	Cc1ccc(S(=O)(=O)NC2=NCCC2)cc1
-29%	CCc1c(C#N)c(SCc2c(C)noc2C)nc2c1C(=O)CC(C)(C)C2
-12%	Fc1ccccc1/C=N/NC(=S)Nc1ccc(Cl)cc1Cl
-11%	COC(=O)N1CCC2(CC1)CCN(c1ncccn1)CC2
-17%	O=C(CCc1ccccc1)Nc1ccc2c(c1)OCCO2
-16%	O=C(Nc1cc(Sc2nc3ccccc3s2)cc([N+](=O)[O-])c1)c1ccccc1
-9%	NS(=O)(=O)c1ccc(N=Nc2c[nH]c(=O)c(O)c2)cc1
-11%	Nc1ccc(N2CCCCCC2)cc1
-7%	COc1cc(OC)nc(NC(=O)CSc2nc3ccccc3[nH]2)n1
-6%	COCCCN(C(=S)Nc1cc(C)cc(C)c1)C(C)c1ccncc1 (stereo not drawn)
-17%	CCOC(=O)c1ccccc1NC(=O)CSc1nc2ccccc2o1
?	Cc1oc(-c2ccccc2)nc1CS(=O)CC(=O)O (stereo not drawn)
-10%	S=C(Nc1ccc(OCc2ccccc2)cc1)Nc1cccc(Cl)c1Cl
-23%	CCOC(=O)c1ccccc1NC(=O)Cn1cnc2c(cnn2-c2ccc(F)cc2)c1=O
?	COc1ccc(Oc2ncc3nc(-c4ccccc4)c(=O)n(Cc4cccs4)c3n2)cc1
22µM*	CC1CCN(C(=O)CSc2nnc(-c3cccnc3)n2C2CCCCC2)CC1
-20%	Cc1cc(N2CCCC(C(=O)Nc3ccc4c(c3)CCC4)C2)n2ncnc2n1 (stereo not drawn)
-14%	Cc1ccc(-n2nc(C)cc2Nc2ncc(Cl)cc2Cl)cc1
-12%	Cc1ccc(OCC(=O)NN=C2c3ccccc3-c3ccccc32)cc1
?	CCCNC(=O)Cc1c(O)c2ccccc2[nH]c1=O
-3%	COc1ccc(C(C[N+](=O)[O-])C2(c3ccc(OC)c(OC)c3)C(=O)c3ccccc3C2=O)cc1 (stereo not drawn)
32µM*	CC(C)c1ccc(Nc2nnc(SCC(=O)c3nnc(-c4ccccc4)o3)s2)cc1
-16%	CCCCCC1CCC(C(=O)O)CC1 (stereo not drawn)
-21%	O=C(c1cc(C2CC2)nc2ccc(Br)cc12)N1N=C(C(F)F)CC1(O)C(F)F (stereo not drawn)
-17%	COc1ccc(-c2cc(C(F)(F)F)c(C#N)c(SCC(=O)Nc3ccccc3C#N)n2)cc1
-1%	CCn1cc(C(=O)N2CCc3ccccc32)c(=O)c2cc(S(=O)(=O)N3CCCC3)ccc21

# The listing continues.
HPGD inh	SMILES
-10%	Cc1ccc(S(=O)(=O)N(CC(=O)N2CCC(C)CC2)Cc2ccccc2F)cc1
-16%	O=c1c2c3c(sc2nc(NCCO)n1CCc1ccccc1)CCCCC3
-9%	COc1ccc(NC(=O)C(F)(F)F)cc1OC
4%	COC(=O)c1cc(C#N)c(Oc2ccccc2OC)nc1C
?	COc1ccc(OC)c(-c2cc(C(=O)Nc3c(C)nn(Cc4ccccc4Cl)c3C)no2)c1
?	Cc1ccc(CC(=O)N2CCC(c3nc4c(nnn4Cc4ccccc4)c(=O)[nH]3)CC2)cc1
-6%	CCN1C(=O)/C(=C/c2cccs2)S/C1=N\S(=O)(=O)c1ccc(C)cc1
-7%	Cn1c(=O)c2c(SC3CCCC3)nc(C3CC3)nc2n(C)c1=O
-13%	CCOc1ccc(C2/C(=C(\O)c3ccc(OC)c(OC)c3)C(=O)C(=O)N2c2cc(C)on2)cc1OC (stereo not drawn)
-15%	CCOCCN1CCN(C(=O)CN2CCCC2=O)CC1
-4%	CC1=Nc2cc(C(=O)O)ccc2Sc2ccc(Br)cc21
-20%	CC(C)c1cc(C(N)=O)c(NC(=O)C2CCC2)s1
-11%	CCCn1cc(S(=O)(=O)CC(=O)Nc2ccc(OC)cc2OC)c2ccccc21
-19%	CN1CCN(CCC(=O)N/N=C/c2cc([N+](=O)[O-])ccc2O)CC1
2%	CCC(C)(C)NC(=O)C(c1ccccc1)N(Cc1cccnc1)C(=O)c1csnn1 (stereo not drawn)
-13%	Cn1cc(CC(=O)NCCCN2CCCC2=O)c2ccccc21
-9%	O=C(Nc1cccc(F)c1)N1CCCC2(CCN(C(=O)c3cnccn3)CC2)C1
7.1µM*	COCCNC(=O)c1ccc2c(c1)nc(C)n2-c1cccc(F)c1
-12%	O=C(c1ccco1)N1CCN(c2ncccn2)CC1
-24%	COc1cc(C2C(C#N)=C(N)Oc3cc(O)ccc32)cc2c1OCO2 (stereo not drawn)

# In the list so far, these have a CF3 group:
HPGD inh	SMILES
-18%	Cc1nn(-c2ccc(C(F)(F)F)cn2)c(C)c1Oc1ccccc1O
-4%	CCOC(=O)Cc1csc(NC(NC(=O)OCC)(C(F)(F)F)C(F)(F)F)n1
-17%	COc1ccc(-c2cc(C(F)(F)F)c(C#N)c(SCC(=O)Nc3ccccc3C#N)n2)cc1
-9%	COc1ccc(NC(=O)C(F)(F)F)cc1OC

# Continuation.
HPGD inh	SMILES
-7%	CCCS(=O)(=O)N1CCCC(C(=O)NCc2cccnc2)C1 (stereo not drawn)
-20%	O=C(NC1CCCC1)c1ccc(CSCc2ccccc2F)o1
-25%	O=C1CC(SCCc2nc3ccccc3[nH]2)C(=O)N1c1ccc(F)cc1 (stereo not drawn)
-14%	O=C(O)C(=Cc1ccnc2ccccc12)C(=O)O
